# PKD1 kinase inh: inhibitors of human PKD1 kinase, biochemical, fluorescence polarization. Serine/threonine-protein kinase D1 (Homo sapiens), Q15139. PKD1 kinase fluorescence polarization assay. inhibition, %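 (about 10 µM by stock and volumes)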. 200,000 tested, 0.056% active;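 active = inhibition of 50% or more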;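 also: controls were vehicle for no effect and a reference inhibitor for full effect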
# Target sequence (Q15139 whole entry, looked up): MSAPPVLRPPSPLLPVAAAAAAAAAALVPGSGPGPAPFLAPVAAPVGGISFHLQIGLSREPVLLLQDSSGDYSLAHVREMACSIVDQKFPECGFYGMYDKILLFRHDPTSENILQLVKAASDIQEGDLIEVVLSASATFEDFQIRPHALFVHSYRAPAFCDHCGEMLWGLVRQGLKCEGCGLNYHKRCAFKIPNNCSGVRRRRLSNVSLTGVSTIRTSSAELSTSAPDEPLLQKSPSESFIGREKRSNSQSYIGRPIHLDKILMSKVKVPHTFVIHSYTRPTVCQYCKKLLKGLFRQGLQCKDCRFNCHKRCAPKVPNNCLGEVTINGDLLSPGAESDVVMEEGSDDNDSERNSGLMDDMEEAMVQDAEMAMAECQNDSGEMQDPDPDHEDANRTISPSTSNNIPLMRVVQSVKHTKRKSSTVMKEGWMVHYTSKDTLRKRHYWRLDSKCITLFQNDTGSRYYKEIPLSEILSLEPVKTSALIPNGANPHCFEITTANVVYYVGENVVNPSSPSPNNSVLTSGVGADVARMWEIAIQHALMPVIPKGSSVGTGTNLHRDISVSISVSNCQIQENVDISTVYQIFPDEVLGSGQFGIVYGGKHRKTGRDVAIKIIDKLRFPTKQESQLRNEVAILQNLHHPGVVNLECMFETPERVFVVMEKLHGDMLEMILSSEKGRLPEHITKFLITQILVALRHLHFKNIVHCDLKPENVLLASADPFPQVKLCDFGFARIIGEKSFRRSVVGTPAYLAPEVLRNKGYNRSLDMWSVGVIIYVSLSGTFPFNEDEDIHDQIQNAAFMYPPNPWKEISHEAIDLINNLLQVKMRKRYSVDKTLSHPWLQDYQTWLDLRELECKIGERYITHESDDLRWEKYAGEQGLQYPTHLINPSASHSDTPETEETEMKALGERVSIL
# HSV augment: enhancers of HSV replication in host cells, fold increase, host cell viability; HSV replication augmentation in cells; maximum fold increase; 220,000 tested, 0.005% active;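 active = peak rise of 1.5-fold or more in the series; tested in PC3 cells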;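 also: first round at 10 µM; read as green reporter fluorescence; hits show the peak of a series up to 25 µM; 1 = signal of infected wells without compound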
# GALR2 agonist: GALR2 receptor agonists, primary screen, cell-based; Galanin receptor type 2 (Homo sapiens), O43603; GALR2-expressing cells, agonist activation read-out; activation, %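 (tested at 5 µM)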; 140,000 tested, 0.48% active; AID 803, 2007;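 active = above mean plus 3 SD of all compounds, about 5% in these data, not always enough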;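 also: 0% = vehicle buffer wells and 100% = reference agonist at full effect; tested in CHO reporter cells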
# INS promoter inh: inhibitors of insulin promoter-driven GFP, primary screen, imaging, TRM-6 cells (human fetal islet line), eGFP reporter, cell count; reporter expression induced with tamoxifen; inhibition, % at 2 µM; 130,000 tested, 0.9% active;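 active = inhibition above the mean plus 3 SD, with well images judged a real hit on visual review, cut at about 60% in these data, passing the limit was not always enough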
# RGS16-Gao: modulators of RGS16 binding to Galphao, primary screen, biochemical, human proteins, multiplexed bead flow cytometry | AID 1441, 2008 | binding response (% of control), % at 10 µM | 220,000 tested, 0.38% active | bead-based flow cytometry RGS16-Galphao binding, fluorescence; actives lie on both sides;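 active = below 25% or above 175%, edge rows of some plates excepted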;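 also: Galphao activated by GDP with aluminum fluoride before binding; 100% = wells without compound and 0% = beads without RGS; some results beyond the cut were filed as inactive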
# INS promoter inh cell count: recorded beside INS promoter inh, whose call it bears; normalized cell count, %; measured here: cell count, toxicity; reference of the scale not given here;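 cells exposed to compound for 48 h; stained nuclei by imaging scaled within each plate; lower means fewer cells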
# HSV augment primary fold: second read-out of HSV augment, no call of its own (marks repeat the call); fold increase; compound at 10 µM; measured here: primary screen fold increase 10 uM; tested in PC3 cells;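 GFP signal in the first replicate; 1 = infected wells without compound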
# The depositor's hits bear a star; i = inactive; · = not tested or not shown.
item	SMILES	PKD1 kinase inh	HSV augment	HSV augment primary fold	GALR2 agonist	INS promoter inh	INS promoter inh cell count	RGS16-Gao
1	COC(=O)c1ccc(CN2CCCCC2)cc1	·	i	1.1	·	·	·	107
2	Cc1ccc2[nH]c(=O)c(CN(CC3CCCO3)S(=O)(=O)c3c(C)ccc4nsnc34)cc2c1 (centres undefined)	1	i	0.79	0.6	-44	74	99
3	COc1ccc(NC(=O)c2cc(-c3cccc(OC)c3)on2)cc1	1	i	1	·	-33	152	105
4	COc1cc(C2CC(=O)c3cnc(N4CCN(Cc5ccccc5)CC4)nc3C2)cc(OC)c1OC (centres undefined)	1	i	0.69	-1.8	·	·	93
5	CC(=O)c1ccc(OCC(O)COc2ccc(C(C)=O)cc2)cc1	1	i	0.93	-1.4	·	·	102
6	CCOC(=O)N1CCC(NC(=O)C2=CCN(S(=O)(=O)c3ccccc3)CC2)CC1	·	i	1	·	·	·	105
7	CCCc1c(C)nc2c(Br)cccc2c1Cl	-3	i	0.93	-0.9	-49	117	109
8	COc1ccc(-c2cn3c(C)c(C(=O)Nc4ccncc4)sc3n2)cc1	-8	i	0.93	-5.3	·	·	98
9	Cc1ccc(NC(=O)NCC2CCN(Cc3cccc(Cl)c3)CC2)c(Cl)c1	-5	i	0.9	·	·	·	99
10	COC(=O)c1ccc(N=c2sc(C(=O)OC)cc(=O)n2C)cc1	-1	i	0.62	·	·	·	96

# Some values from the results shown:
# Result of `COc1cc(C2CC(=O)c3cnc(N4CCN(Cc5ccccc5)CC4)nc3C2)cc(OC)c1OC` (centres undefined) in HSV augment primary fold: 0.69
# Result of `COC(=O)c1ccc(CN2CCCCC2)cc1` in RGS16-Gao: 107
# Result of `COC(=O)c1ccc(N=c2sc(C(=O)OC)cc(=O)n2C)cc1` in RGS16-Gao: 96

# Continued.
item	SMILES	PKD1 kinase inh	HSV augment	HSV augment primary fold	GALR2 agonist	INS promoter inh	INS promoter inh cell count	RGS16-Gao
11	COc1cccc(N(C(=O)CCl)C(C(=O)NCCc2ccccc2)c2cccs2)c1 (centres undefined)	-17	i	0.7	-0.6	-163	1	95
12	C=CCc1cccc(/C=N/NC(=O)C(=O)Nc2ccc(C)cc2)c1O	1	i	0.88	·	·	·	97
13	Cn1nccc1C(=O)Oc1cccc(/C=N/NC(=O)c2ccccc2O)c1	5	i	0.94	·	·	·	98
14	O=S(=O)(NCCOc1cccc2cccnc12)c1ccc(F)cc1	-1	i	0.99	-1.6	10	145	100
15	CCn1c(=O)c(C(=O)Nn2c(C)nc3ccccc3c2=O)c(O)c2ccccc21	-1	i	1	-0.4	30	133	104
16	O=C(NCCN1C(=O)S/C(=C\c2ccccc2)C1=O)C1CCN(S(=O)(=O)c2cccs2)CC1	3	i	0.86	0.7	-13	124	109
17	CCCCn1nc2cc(C(=O)NC3CCCc4ccccc43)ccc2c1OCC (centres undefined)	-11	i	0.84	-1.5	·	·	99
18	CCc1cc2c(=O)c(-c3nc4ccccc4n3C)c(C)oc2c(CN2CCN(CCO)CC2)c1O	3	i	0.89	-0.6	-15	86	166
19	O=C(NCc1ccc(F)cc1)C(c1ccccc1)N(C(=O)c1csnn1)C1CC1 (centres undefined)	8	i	0.93	·	·	·	100
20	c1ccc(C2CCC(N3CCC(N4CCCCC4)CC3)CC2)cc1 (centres undefined)	8	·	·	-1.4	0	75	99

item	SMILES	PKD1 kinase inh	HSV augment	HSV augment primary fold	GALR2 agonist	INS promoter inh	INS promoter inh cell count	RGS16-Gao
21	NC(=O)c1cc([N+](=O)[O-])ccc1NCCN1C(=O)c2ccccc2C1=O	7	i	0.93	·	-29	92	98
22	CCOC(=O)C1(Cc2cccc(OC)c2)CCCN(Cc2cc(C(C)C)n[nH]2)C1 (centres undefined)	0	i	1	·	·	·	95
23	CCCCOc1c(Cl)cc(CNC(C)(C)CO)cc1OCC	4	i	0.71	-2.1	-60	97	101
24	CC(C)(C)C1C/C(=C/c2ccccn2)C(=O)/C(=C/c2ccccn2)C1 (centres undefined)	1	i	0.6	·	i	1	97
25	Cc1cc(C)cc(NC(=S)NCCc2c[nH]c3ccccc23)c1	-3	i	0.78	-0.7	28	97	107
26	NCc1ccc(S(N)(=O)=O)cc1	-5	i	0.85	-1.6	26	103	·
27	Cc1nc2ccccc2c(=O)n1NC(=O)c1cccc([N+](=O)[O-])c1	-5	i	1	·	·	·	102
28	O=C(NCC1COc2ccccc2O1)C1(c2ccccc2)CCCC1 (centres undefined)	-8	i	1.1	·	·	·	104
29	O=C(Nc1ccccc1F)c1cnccn1	-6	i	0.93	·	12	125	106
30	CC1CC(=O)Nc2ccccc2N1S(=O)(=O)c1cccs1 (centres undefined)	·	i	1	·	·	·	97

item	SMILES	PKD1 kinase inh	HSV augment	HSV augment primary fold	GALR2 agonist	INS promoter inh	INS promoter inh cell count	RGS16-Gao
31	CC(=O)Nc1nnc(SCC(=O)N2CCCc3ccccc32)s1	-12	i	0.92	·	27	119	109
32	C/C(CC(=O)NCc1ccc(Cl)cc1)=N\NC(=O)c1ccccc1F	6	i	0.92	·	18	47	106
33	NC(=O)CCN1CCN(Cc2cn[nH]c2-c2cccc3ccccc23)CC1	-3	i	1.1	·	·	·	107
34	COc1ccccc1N/C(N)=N/c1nc(C(F)(F)F)cc(=O)[nH]1	-2	i	0.88	·	·	·	103
35	CCO[C@@H]1OC(C(=O)Nc2ccccc2)=C[C@H](c2ccccc2)[C@H]1CCCO	0	i	0.89	·	·	·	100
36	CCOC(=O)/C=C1\SCC(=O)N1CC(=O)NCc1cccc(Cl)c1	-13	i	1.1	-0.5	·	·	106
37	O=C(Oc1ccccc1N1CCOCC1)c1ccccc1	·	i	1.2	·	·	·	96
38	Cn1c(=O)c2ncn(CC(=O)NCCOCc3ccccc3Cl)c2n(C)c1=O	1	i	0.82	-1.4	42	101	110
39	Cc1ccc(NS(=O)(=O)c2cccc(C(=O)N3CCOCC3)c2)cc1	0	i	0.94	-2.1	-19	111	101
40	Cc1cc(C)nc(NS(=O)(=O)c2ccc(N=Cc3c(C)[nH]n(-c4ccccc4)c3=O)cc2)n1	0	i	1.1	-1.1	18	112	90

# Second line of a record – PKD1 kinase inh	HSV augment	HSV augment primary fold	GALR2 agonist	INS promoter inh	INS promoter inh cell count	RGS16-Gao
41) CN(Cc1ccccc1)C(=O)c1cc(-c2ccc(Br)cc2)on1
    -4	i	0.76	-2.4	21	106	102
42) Cc1ccc(NC(NC(=O)OCCn2c([N+](=O)[O-])cnc2C)C(Cl)(Cl)Cl)cc1 (centres undefined)
    -6	i	0.79	0.3	·	·	58
43) Cc1ccc(NC(=O)CCn2cc(C(F)(F)F)ccc2=O)cc1
    ·	i	0.92	·	·	·	100
44) Cc1ccccc1Nc1c(-c2ccc(N3CCOCC3)cc2)nc2ncccn12
    8	i	0.95	·	20	87	102
45) c1ccc(Cn2nnc3c(N4CCN(Cc5ccc6c(c5)OCO6)CC4)ncnc32)cc1
    -10	i	0.93	-4.4	·	·	107
46) Cc1ccc(N(CC(=O)NCc2ccncc2)S(C)(=O)=O)cc1
    -2	i	1.1	-1.8	-100	114	101
47) O=C(CCCOc1ccccc1)Nc1nnc(C2CCCO2)s1 (centres undefined)
    -8	i	0.79	-1.6	·	·	94
48) Cc1ccc(-c2csc3nc4ccc(C(=O)NCCO)cc4c(=O)n23)cc1
    ·	i	0.8	·	·	·	106
49) CC(=O)Nc1cccc(NC(=O)CCn2c(=O)sc3ccccc32)c1
    -3	i	1	-0.6	-32	159	74
50) Cc1ccc(S(=O)(=O)N2CCC(C(=O)N3CCC(C(=O)NCC4CCCO4)CC3)CC2)cc1 (centres undefined)
    1	·	·	-2.3	·	·	100
51) CCc1ccc(CCC(=O)Nc2nc(CC(C)=O)ns2)o1
    16	i	0.91	-1.4	13	108	111
52) O=C(C1CCCN(CCCc2ccccc2)C1)N1CCCCCC1 (centres undefined)
    -7	i	0.87	-1.1	-16	94	108
53) CCOCCCNC(=O)C(NC(=O)c1ccc(NC(C)=O)cc1)c1ccc(C)cc1 (centres undefined)
    1	i	1.1	-0.4	-17	112	110
54) COc1ccc(CNC(=O)C(C)Cc2ccccc2)cc1O (centres undefined)
    -2	i	0.81	-1.9	43	114	94
55) CC1(C)C=Cc2c(c3c(c4c(=O)c(-c5ccc(O)cc5)coc24)OC(C)(C)CC3)O1
    12	i	0.8	·	·	·	100

# Second line of a record – PKD1 kinase inh	HSV augment	HSV augment primary fold	GALR2 agonist	INS promoter inh	INS promoter inh cell count	RGS16-Gao
56) Cc1c(C(C)(C(=O)O)c2c(C)n(C)c3ccccc23)c2ccccc2n1C
    ·	i	1.1	·	·	·	98
57) COc1ccc(/C(O)=C(\C#N)c2nc3ccccc3n2C)cc1OC
    -18	i	0.78	1.0	36	105	104
58) O=C(NCCSc1c[nH]c2ccccc12)c1ccc(Br)o1
    -2	i	0.92	0.4	·	·	104
59) CC(=O)NN1C(=O)c2ccccc2NC1c1ccco1 (centres undefined)
    3	i	1	·	-35	153	98
60) O=C(CCc1ccc(S(=O)(=O)NCCc2ccccc2)cc1)N1CCN(Cc2ccc3c(c2)OCO3)CC1
    -8	i	0.76	-0.8	6	69	105
61) Cc1ccc(/C=C/C(=O)O)cc1S(=O)(=O)N(CCO)CCO
    -9	i	1.1	-1.7	7	104	45
62) COC(=O)c1sc2ccccc2c1-n1cccc1C(=O)C(=O)Nc1ccccc1
    -21	i	0.76	-2.6	38	49	102
63) O=C(c1cc2ccccc2oc1=O)N1CCN(c2ccccn2)CC1
    -7	i	0.96	-0.1	·	·	127
64) Clc1ccc2c(c1)-c1[nH]ncc1CS2
    ·	i	0.85	·	·	·	109
65) Cc1ccc(-c2cc(Cc3ccccn3)c(=O)[nH]n2)cc1
    ·	i	0.99	·	·	·	91
66) C=CCn1c(=S)[nH]c2nc3c(cc2c1=O)CCCC3
    5	i	0.92	0.9	24	86	105
67) O=C(COc1ccccc1-c1ccccc1)N/N=C/c1ccncc1
    2	i	0.86	·	·	·	99
68) O=C1CC(/C=C/c2ccccc2)=Nc2ccccc2N1
    7	i	0.74	·	·	·	101
69) O=C(/C=C/c1cccs1)N1CCN(c2ccc(F)cc2)CC1
    ·	i	1	·	·	·	93
70) Cn1cccc1CNCc1ccc(F)cc1
    -2	i	0.91	-1.1	0	122	76

# Five consecutive records from above, quoted:
# Second line of a record – PKD1 kinase inh	HSV augment	HSV augment primary fold	GALR2 agonist	INS promoter inh	INS promoter inh cell count	RGS16-Gao
56) Cc1c(C(C)(C(=O)O)c2c(C)n(C)c3ccccc23)c2ccccc2n1C
    ·	i	1.1	·	·	·	98
57) COc1ccc(/C(O)=C(\C#N)c2nc3ccccc3n2C)cc1OC
    -18	i	0.78	1.0	36	105	104
58) O=C(NCCSc1c[nH]c2ccccc12)c1ccc(Br)o1
    -2	i	0.92	0.4	·	·	104
59) CC(=O)NN1C(=O)c2ccccc2NC1c1ccco1 (centres undefined)
    3	i	1	·	-35	153	98
60) O=C(CCc1ccc(S(=O)(=O)NCCc2ccccc2)cc1)N1CCN(Cc2ccc3c(c2)OCO3)CC1
    -8	i	0.76	-0.8	6	69	105

# Next results.
# Second line of a record – PKD1 kinase inh	HSV augment	HSV augment primary fold	GALR2 agonist	INS promoter inh	INS promoter inh cell count	RGS16-Gao
71) O=C(COC(=O)/C=C/c1cccc(C(F)(F)F)c1)NCc1ccccc1
    8	i	0.94	0.4	34	107	109
72) O=C(O)c1nccnc1C(=O)NCc1csc2ccc(Cl)cc12
    ·	i	0.9	·	·	·	93
73) CC(=O)c1ccc(NC(=O)N[C@@H](CC(C)C)C(=O)O)cc1
    -5	i	1	-1.3	36	39	97
74) CCCS(=O)(=O)c1ccc(COC(=O)c2ccc(NC(C)=O)cc2)cc1
    6	i	0.94	·	0	103	98
75) N#Cc1cnn(-c2cccc(Cl)c2)c1N
    -106	i	1	·	·	·	99
76) Cc1cccc(-n2c(Cc3cc(=O)[nH]c(=O)[nH]3)nnc2SCC(=O)NCc2ccco2)c1
    1	·	·	-1.0	12	95	·
77) c1ccc2oc(C3=NNC(=NC4CC4)SC3)cc2c1
    -6	i	0.98	-1.4	·	·	92
78) CNc1nc(CCN2C(=O)c3ccccc3C2=O)cs1
    2	i	0.82	-3.7	10	120	92
79) Cc1ccc(C2Nc3ccccc3-c3nc4ccccc4n32)o1 (centres undefined)
    -6	i	0.71	-1.3	49	184	102
80) Nc1cc2c([N+](=O)[O-])cccc2o1
    6	i	1.2	-2.4	-10	251	97
81) CCOC(=O)C1CCN(C(=O)CSc2ccccc2Cl)CC1
    2	i	1.1	·	·	·	102
